# VCAM-1 imaging – suppression of endothelial VCAM-1 upregulation – imaging, high-content imaging, pooled HUVEC, TNFa stimulus (AID 456). HUVEC TNFa-induced VCAM-1 surface expression, immunofluorescence imaging; numbers were filed only for top-ranked candidate wells. inhibition, % at 5 µM; hits with a dose series show IC50 in µM. 10,000 compounds, 0.2% hits;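 active = top tenth filtered wells with inhibition above zero that passed visual or statistical confirmation; inactive = the rest, including hits rejected on review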;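 also: 0% = stimulated vehicle wells and 100% = unstimulated cells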
# VCAM-1 up imaging – enhancers of VCAM-1 display on endothelial cells, imaging, high-content imaging, pooled HUVEC, TNFa stimulus (AID 457); calls only; 10,000 compounds, 0.2% hits; Pooled HUVEC, TNFa-induced VCAM-1 immunofluorescence imaging; hits of this screen are not shown here;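 active = a top-ranked rise in VCAM-1 staining upheld on image or statistical review; inactive = the rest, including candidates rejected on review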;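 also: compounds tested at 5 µM in the well; cells exposed to compound for 24 hours before fixing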
# VCAM-1 inhibition – inhibitors of TNFa-induced VCAM-1 surface display, cell-based, plate reader, pooled HUVEC, TNFa stimulus (AID 454). HUVEC TNFa-induced VCAM-1 surface immunofluorescence, plate reader; numbers were filed only for top-ranked candidate wells. 10,000 compounds, 0.2% hits. inhibition, % at 5 µM;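 active = compound among top-ranked inhibitors of TNF-induced VCAM-1 adhesion protein staining, with the hit upheld by image or statistical review; inactive = the rest, including hits rejected on review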;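 also: 0% = TNFa with vehicle and 100% = cells without TNFa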
# FPR binder – human FPR ligand, with FPRL1 counter-screen; 24,000 compounds, 0.74% hits; inhibition, %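 (tested at 6.7 µM)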; P21462; FPR-expressing cells, fluorescent ligand binding, flow cytometry;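 also: 0% = buffer wells and 100% = receptor blocker peptide wells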
# Target sequence (P21462 whole entry, looked up): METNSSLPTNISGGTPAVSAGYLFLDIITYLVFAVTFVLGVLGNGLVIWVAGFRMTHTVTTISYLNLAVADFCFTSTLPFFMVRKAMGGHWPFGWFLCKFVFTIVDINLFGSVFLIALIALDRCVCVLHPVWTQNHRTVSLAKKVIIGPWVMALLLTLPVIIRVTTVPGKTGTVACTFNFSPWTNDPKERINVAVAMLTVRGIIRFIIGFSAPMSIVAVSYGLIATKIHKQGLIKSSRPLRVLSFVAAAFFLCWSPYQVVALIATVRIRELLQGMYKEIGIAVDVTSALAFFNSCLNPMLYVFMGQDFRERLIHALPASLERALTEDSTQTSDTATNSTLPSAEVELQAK
# FPRL1 ligand – binds the human formylpeptide receptor-like-1 FPRL1. P25090. FPRL1-expressing cells, fluorescent ligand binding inhibition, flow cytometry. inhibition, %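 (tested at 6.7 µM)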. 24,000 compounds, 0.3% hits. AID 441;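 also: 0% = buffer alone and 100% = receptor blocker peptide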
# Target sequence (P25090 whole entry, looked up): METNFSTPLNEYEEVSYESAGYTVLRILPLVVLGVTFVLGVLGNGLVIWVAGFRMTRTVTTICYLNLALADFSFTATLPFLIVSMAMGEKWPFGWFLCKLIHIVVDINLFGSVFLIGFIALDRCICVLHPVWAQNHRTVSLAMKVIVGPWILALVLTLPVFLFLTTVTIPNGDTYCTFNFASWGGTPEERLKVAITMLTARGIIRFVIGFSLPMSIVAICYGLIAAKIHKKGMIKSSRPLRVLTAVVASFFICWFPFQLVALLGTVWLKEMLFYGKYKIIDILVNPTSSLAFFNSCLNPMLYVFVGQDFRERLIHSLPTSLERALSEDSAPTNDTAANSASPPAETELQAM
# An asterisk follows results filed as active; i = inactive; . = not tested or not shown.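 The calls were made as follows, unless noted: active = mean above 30%; inconclusive = self-fluorescent; inactive = the rest.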
SMILES,VCAM-1 imaging,VCAM-1 up imaging,VCAM-1 inhibition,FPR binder,FPRL1 ligand
O=C(c1cncc(Br)c1)N1CCN(c2ccc(N3CCOCC3)nn2)CC1,.,.,.,4.2,3.3
CC(C)N(Cc1nc(-c2ccccc2)no1)C(=O)CCCN1C(=O)c2ccccc2C1=O,i,i,i,-3.4,-7.4
Cc1c(NC(=O)C(C)Oc2ncnc3ccccc23)c(=O)n(-c2ccccc2)n1C (configuration not stated),i,i,i,-3.9,4.0
Cc1ccc2nc(SC(C)C(=O)N3CCCC3)[nH]c2c1 (configuration not stated),i,i,i,10.0,0.4
C=CCn1c(COc2ccc(Cl)cc2)nnc1SCC(=O)N1CC(=O)Nc2ccccc21,i,i,i,2.5,-9.9
O=C(C1CCCN(S(=O)(=O)c2cccc3cccnc23)C1)N1CCN(c2ccc(F)cc2)CC1 (configuration not stated),.,.,.,-0.5,-2.4
CCOC(=O)C1CCN(C(c2cc3cc(C)cc(C)c3[nH]c2=O)c2nnnn2C2CCCCC2)CC1 (configuration not stated),i,i,i,1.6,-4.7
C/C=C(\CS(=O)(=O)c1ccccc1)S(=O)(=O)c1ccccc1,6.39µM*,i,76.4,-4.2,-2.9
CCNc1nc(SCCOc2ccc(C)cc2)nc(N(C)C)n1,.,.,.,1.5,-6.5
COc1ccc(-c2c(C(F)(F)F)oc3c(CN4CCN(C)CC4)c(O)ccc3c2=O)cc1,i,i,i,-3.5,-3.6
CC(=O)c1c(C)[nH]c(C(=O)NC2=NCCS2)c1C,i,i,i,2.0,2.6
CC(=O)N1CCc2cc(S(=O)(=O)NCCC(=O)NCCc3ccccc3)ccc21,.,.,.,2.8,-1.0
Cc1cccc(NC(=O)c2cc(NC(=O)C3CCCCC3C(=O)O)ccc2N2CCCCC2)c1 (configuration not stated),.,.,.,-1.1,-5.6
CSC1=C(C#N)C(c2ccc(C)cc2)C2=C(CCCC2=O)N1 (configuration not stated),i,i,i,0.8,3.1
O=C(OCc1cc2ccccc2[nH]c1=O)c1ccncc1,i,i,i,-2.8,2.2
O=c1cc(NCc2ccco2)[nH]c(=O)n1-c1ccc(Br)cc1,.,.,.,2.8,-1.8
COC(=O)c1c(C(C)=O)cnc2ccc(Br)cc12,.,.,.,0.2,-0.4
O=C(NC1CCCCC1)c1sc(=S)n2c1[nH]c(=O)c1ccccc12,.,.,.,62.2*,-3.0
Cc1[nH]c(=O)[nH]c(=O)c1S(=O)(=O)N1CCCC(C(=O)N2CCN(c3ccccc3Cl)CC2)C1 (configuration not stated),.,.,.,-1.7,0.9
CC1CCN(C(=O)C(Cc2ccccc2)n2cccc2)CC1 (configuration not stated),.,.,.,5.3,-4.3
Cc1nc2sccn2c(=O)c1CCN1CCC(=C(c2ccccc2)c2ccc(F)cc2)CC1,11.5µM*,i,i,2.5,8.6
CCOC(=O)CNC(=O)Cn1cnc2c(nnn2-c2cccc(Cl)c2)c1=O,i,i,i,-2.8,1.9
CC(=O)c1cccc(NC2c3ccccc3C(=O)N2Cc2ccc3c(c2)OCO3)c1 (configuration not stated),.,.,.,-3.8,-2.0
CCOc1cccc(C(=O)Nc2cccc(-c3nc4ncccc4o3)c2C)c1,i,i,i,-9.1,-0.9
CCOP(=O)(c1ccc(N(C)C)cc1)C(O)c1cc(OC)c(OC)c(OC)c1 (configuration not stated),i,i,i,-1.8,3.8
COc1cc2c(cc1OC)-c1nnc(C)n1C1(CCCC1)C2,i,i,i,4.7,1.2
CN1CCN(CCCNC(=O)c2ccc(CSCc3cccc(Cl)c3)o2)CC1,.,.,.,-6.6,-2.7
Cc1cc(C(F)(F)F)n2ncc(C(=O)O)c2n1,.,.,.,-2.2,-1.3
COC(=O)c1ccc(C2c3c(oc4cc(C)c(C)cc4c3=O)C(=O)N2CCCN(C)C)cc1 (configuration not stated),.,.,.,-6.6,7.6
Cc1ccc(-c2nc(NC(=O)CSc3nnc4scc(-c5ccccc5)n34)ns2)cc1,.,.,.,6.5,-6.6
COc1ccc2c(c1)Sc1ccccc1N2CCN(C)C,i,i,i,-7.3,-4.6
COc1ccc(C)cc1NCc1cccc(OC)c1OC,i,i,i,-5.3,-1.8
Cn1c(=O)c2c(nc(SCCCO)n2Cc2ccccc2Cl)n(C)c1=O,i,i,i,-2.0,-8.9
CC1(C)Oc2ccc3ccc(=O)oc3c2-c2cnoc21,.,.,.,-0.2,-4.1
Clc1ccc(OCc2nnc3n2N=C(c2ccc4c(c2)OCCO4)CS3)c(Cl)c1,.,.,.,10.5,-0.2
Cn1c(=O)c2cc(S(=O)(=O)NCCC(=O)Nc3ccccc3F)ccc2n(C)c1=O,.,.,.,-6.0,9.1
CC1CCCCN1S(=O)(=O)c1ccc2c(c1)oc(=O)n2CC(=O)O (configuration not stated),.,.,.,-7.4,-10.9
COc1ccccc1S(=O)Cc1ccc(C(=O)NCc2ccccc2Cl)o1 (configuration not stated),.,.,.,-1.0,-8.9
Cc1cc(=O)c2n(Cc3ccccc3Cl)nc[n+]2[nH]1,i,i,i,-2.3,-0.4
COc1ccc(C(=O)N2CCN(C(=O)c3ccco3)CC2)cc1OC,i,i,i,-4.4,-3.6
CCn1c(SCC(=O)N2c3ccccc3CCc3ccccc32)nc2c1c(=O)n(C)c(=O)n2C,i,i,i,-3.7,-2.3
CC(CCc1ccccc1)NC(=O)C1CCN(C(=O)c2sccc2-n2cccc2)CC1 (configuration not stated),.,.,.,0.4,-1.1
CC1(C)OC(=O)C(C(c2ccccc2)C(C#N)C(N)=O)=C(O)O1 (configuration not stated),.,.,.,9.4,0.3
O=C(Cn1cc2c(n1)CCCC2)NCCc1ccccc1,i,i,i,4.9,4.0
COC(=O)c1nc2n(n1)C(c1ccc(OC)c(OC)c1OC)C1=C(CCCC1=O)N2 (configuration not stated),.,.,.,-1.2,-1.4
N#CCCN(Cc1cccnc1)C(=O)Nc1ccc(Cl)c(Cl)c1,i,i,i,3.4,-1.4
Cc1ccccc1Nc1nc(N)nc(CSCc2c(C)noc2C)n1,i,i,i,8.7,10.9
CC1(C)Cc2c(sc3c2C2=NCCN2C=N3)CO1,i,i,i,-1.9,2.4
O=C1NCCN1C(=O)c1ccco1,.,.,.,-1.5,-1.0
CC(=O)Nc1ccc2[nH]c3ccccc3c2c1,.,.,.,5.3,-5.6
Cn1c(C(=O)NCCCN2CCCCC2)cc2sccc21,.,.,.,-6.7,8.6
Cc1ccc(-n2c(C)nc3c(cnn3-c3ccc(F)cc3)c2=O)cc1C,.,.,.,2.0,-2.1
O=C(NCc1cccnc1)C1CC(c2ccc(F)cc2)=NO1 (configuration not stated),.,.,.,-2.7,3.5
O=C(NCCCN1CCOCC1)c1csc2c1CCCC2,.,.,.,7.1,4.2
COC(=O)Nc1ccc(S(=O)(=O)Nc2ccccc2F)cc1,.,.,.,4.3,1.0
Cc1ccc(C(=O)Nc2ccc3c(c2)OCO3)o1,i,i,i,-4.3,5.5
CNC(=O)Cn1ncc2c(C)n(Cc3ccc(C)cc3)c(C)c2c1=O,.,.,.,-7.3,8.2
CCOC(=O)N1CCN(Cc2nc3c(c(=O)[nH]c(=O)n3C)n2Cc2ccccc2C)CC1,.,.,.,0.5,5.7
Cn1c2c(c(=O)n(C)c1=O)C(NC(=O)C(C)(C)C)(C(F)(F)F)C(=O)N2 (configuration not stated),i,i,i,-0.1,-0.6
CCCN1Cc2cccc(C(=O)Nc3ccc(N4CCN(CC)CC4)cc3)c2C1=O,.,.,.,0.5,-0.3

# (more compounds)
SMILES,VCAM-1 imaging,VCAM-1 up imaging,VCAM-1 inhibition,FPR binder,FPRL1 ligand
COc1ccc(N(CC(=O)O)S(=O)(=O)c2ccc(OC)c(OC)c2)cc1,i,i,i,2.4,5.9
COc1ccc2c(CC(=O)Nc3nnc(C4CC4)s3)coc2c1,i,i,i,-3.4,-3.4
Cc1cc(S(=O)(=O)NCc2ccco2)c(C)s1,.,.,.,-0.2,-1.9
CCC1(C)OC(=O)N2CCc3c(C)[nH]c4c(C)ccc(c34)C21C (configuration not stated),.,.,.,4.2,-3.2
CCOC(=O)N1CCC(N2CC34C=CC(O3)C(C(=O)Nc3ccc(C(C)C)cc3)C4C2=O)CC1 (configuration not stated),.,.,.,0.5,-0.7
NC(=O)c1sc(=S)n(-c2ccc(Br)cc2)c1N,.,.,.,-3.4,-1.4
COC(=O)/C=c1/s/c(=C(/C#N)C(=O)N2CCOCC2)n(-c2ccccc2)c1=O,i,i,i,8.0,-4.3
CCOc1ccc(CCNC(=O)CN(C)S(=O)(=O)c2ccc3c(c2)CCC(=O)N3)cc1OCC,.,.,.,6.6,2.6
CCOc1ccc2[nH]c(=O)c(C(c3nnnn3Cc3ccco3)N3CCC(C)CC3)cc2c1 (configuration not stated),i,i,i,-1.3,-4.3
CCc1nnc(NC(=O)c2ccc(COc3ccc(C)cc3)o2)s1,i,i,i,-0.5,-4.6
CCOC(=O)c1nnn(-c2nonc2N)c1CNc1ccccc1,.,.,.,4.6,-3.4
O=c1[nH]c(-c2ccccc2)c(-c2ccccc2)[nH]1,.,.,.,2.2,-1.8
O=C(NCc1ccco1)c1scc2c1OCCO2,.,.,.,-0.1,0.6
O=C(CSc1nnc(-c2cccnc2)o1)OC1CCCCC1,i,i,i,13.9,7.6
Cn1c(=O)cc(OCC(=O)NCc2cccnc2)c2ccccc21,.,.,.,-0.9,0.3
CN(C(=O)CSc1nc(N)nn1-c1ccccc1)c1ccccc1,.,.,.,-0.9,2.8
COc1cccc(NC(=O)CSc2nnc(Cn3c(=O)sc4ccccc43)n2C)c1,.,.,.,-0.6,1.6
O=S(=O)(NCCc1csc(-c2ccccc2)n1)c1ccc2c(c1)OCCO2,i,i,i,11.2,12.6
CN(C)c1ccc(C(=O)N2CC(=O)N(CCc3ccccc3)C(=O)C2)cc1,.,.,.,4.5,-0.5
CCOC(=O)CSc1nnc(CCc2nc3ccccc3[nH]2)n1C,i,i,i,-6.8,-3.6
CC(Sc1nnc(Cn2c(=O)sc3ccccc32)n1C)c1ccccc1 (configuration not stated),.,.,.,-6.7,8.6
COc1ccc(-n2c(SCCC(=O)O)nnc2-c2ccncc2)cc1,i,i,i,13.5,18.6
CCN(C(=O)CCS(=O)(=O)c1ccc(Br)cc1)c1ccc2c(c1)OCO2,.,.,.,-3.6,-3.1
CN(CC(=O)NC1CCCCCCC1)S(=O)(=O)c1cccc2cccnc12,.,.,.,3.6,-1.4
CC1Cc2ccccc2N1C(=O)Cn1c(=O)oc2cc(S(=O)(=O)NC3CCCC3)ccc21 (configuration not stated),.,.,.,4.8,-14.0
COc1ccccc1NC(=O)CN1CCN(CC(=O)Nc2cc(NC(C)=O)ccc2OC)CC1,.,.,.,-1.7,-2.8
CCc1cccc(OCC(=O)Nc2ccc(S(=O)(=O)Nc3onc(C)c3C)cc2)c1,.,.,.,9.6,1.3
CCOc1ccc(CNC(=O)C2CCN(S(=O)(=O)CC)CC2)cc1OC,.,.,.,-2.0,-0.8
Cc1cccc(OCC(=O)Nc2ccc(N3CCCC3)cc2)c1C,i,i,i,16.8,18.8
CC(=O)Nc1ccc(N2C(=O)CSC2c2ccc(F)cc2)cc1 (configuration not stated),.,.,.,1.9,2.9
Cc1ccc2c(c1)c(-c1ccccc1)nc1nncn12,.,.,.,-1.6,-5.9
CC(=O)N1CCc2cc(S(=O)(=O)NCCC(=O)Nc3cccc(C)c3C)ccc21,.,.,.,0.7,-0.1
O=C(NCC1CCCO1)c1ccc(CS(=O)(=O)c2ccc(Br)cc2)o1 (configuration not stated),.,.,.,-9.3,-13.2

# Source: PubChem BioAssay

# Not all compounds are listed. The share of hits here may be higher or lower than overall.
